Bioassay records (PubChem BioAssay)
miR-21 reporter: miR-21 reporter, rising signal. HeLa miR-21 FLuc reporter, luciferase, 48 h. Potency, µM (series often up to 38.3 µM), without a hit: at the top dose reporter change, positive = more light. 340,000 tested, under 10 active; active = well fitted rising curve with a large enough effect; inconclusive = small, poorly fitted or top-dose-only effect; inactive = no such curve, though single readings can be large or run the other way;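 also: % of control where 0% means no effect; miR-21 action dims this reporter so a rising signal means less miR-21 action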
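Using DMEM plus 10% FBS, HeLa miR-21-FLuc cells are incubated with test compounds (final up to about 40uM) for 48 hours; firefly luciferase signal is then imaged following reagent-mediated lysis.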
Rango release inh: prevents RanGTP from dissociating the Rango-importin beta complex; Biochemical FRET Rango-importin beta, RanGTP-induced dissociation; hit rate 0.071% among 340,000; O95149+P62826; Potency, µM (highest dose often 46.1 µM), for the others: at the top dose activity change, negative = inhibition; active means falling FRET ratio curve, often poorly fitted, with flat reads before Ran was added; inconclusive means other falling curves, or compound fluorescence or quenching; inactive means flat or rising ratio curve;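 also: potency is read from the fitted curve at half-maximal effect; % of control where 0% means no effect; nearly all actives have a fitted effect of over 45% in size; -100% = wells without RanGTP and RCC1; the record marks most hits as doubtful in a second field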
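Rango/importin beta premix (0.1/0.25 uM final), PBS + 1 mM DTT + 0.02% Tween-20 + 0.1% BSA; cpd 5 min RT; FRET pre-read; + RanGTP-RCC1 (0.6 uM Ran, 2 mM GTP, 0.2 uM RCC1); 45 min RT; FRET post-read, ex 430, em 486/530 nm.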
GLA inh pH 4.5: alpha-galactosidase A (human) inhibition, pH 4.5; P06280; activity change, negative = inhibition, % at 105 µM; AID 1467; purified enzyme, 4-MU-alpha-Gal fluorescence, pH 4.5; 230,000 tested, under 10 active; inconclusive = small, poorly fitted or top-dose-only inhibition, or a rising curve; inactive = flat fitted curve, though single readings scatter; no compound was filed as active;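 also: 0% = full activity with enzyme and -100% = basal without enzyme; dose as in the result columns while the protocol names 77 µM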
Target sequence (P06280 whole entry, looked up): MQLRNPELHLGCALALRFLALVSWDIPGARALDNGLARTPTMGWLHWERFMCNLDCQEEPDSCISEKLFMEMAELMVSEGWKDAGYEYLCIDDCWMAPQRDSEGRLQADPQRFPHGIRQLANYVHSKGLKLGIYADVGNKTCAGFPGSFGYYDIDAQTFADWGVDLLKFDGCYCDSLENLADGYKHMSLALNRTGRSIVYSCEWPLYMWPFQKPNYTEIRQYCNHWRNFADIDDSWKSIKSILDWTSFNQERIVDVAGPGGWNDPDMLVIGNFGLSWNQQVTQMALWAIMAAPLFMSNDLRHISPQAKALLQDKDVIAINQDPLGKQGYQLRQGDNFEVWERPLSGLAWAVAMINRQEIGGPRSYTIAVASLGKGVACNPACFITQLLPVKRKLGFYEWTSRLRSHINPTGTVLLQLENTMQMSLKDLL
Rango complex inh: prevents formation of the Rango-importin beta complex | Q14974 | Rango CFP/YFP FRET sensor + importin beta, 45 min | Potency, µM (doses to about 92.2 µM), for inactives: at the highest dose inhibition of complex formation | hit rate 0.031% among 340,000; active = rising FRET ratio curve, often small or poorly fitted; inconclusive = mostly compound fluorescence or quenching in the first reads; inactive = flat curves in all reads;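 also: potency is read from the fitted curve at half-maximal effect; 0% = DMSO wells and 100% = buffer wells lacking importin beta; nearly all actives have a fitted effect of over 15% in size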
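FRET biosensor (snurportin 1 IBB flanked by EYFP and cerulean), 50 nM, with compound 5 min, then 0.125 microM importin beta in PBS, 1 mM DTT, 0.02% Tween-20, 0.1% BSA. CFP/YFP ratio read after 45 min at room temperature; pre-read flags interference.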
Numbers without * were called inactive; ? = inconclusive; . = not tested or not shown. This is a subset; the hit share may differ from the screen's.

SMILES	miR-21 reporter	Rango release inh	GLA inh pH 4.5	Rango complex inh
CNC(=O)CN1C(=O)NC(c2ccccc2)(c2ccccc2)C1=O	0.3%	-8.6%	.	-3.6%
O=C(NCC(=O)N1CCN(c2ccccc2)CC1)c1ccc(Br)o1	-3.7%	9.5%	.	0.0%
CCC(=O)N1CCc2cc(Br)cc(S(=O)(=O)N3CCN(C(=O)c4ccco4)CC3)c21	-2.3%	-2.9%	5.6	1.3%
N#CCCN(C(=O)COC(=O)c1ccc(S(=O)(=O)N2CCCC2)cc1)c1cccc(Cl)c1	.	-6.0%	.	4.9%
O=C(Nc1nnc(-c2ccccc2F)s1)C1CCCO1 (stereo not given)	-60.4%	19.9%	0.7	2.7%
Cc1nn(-c2ccccc2)c(C)c1/C=N/NC(=O)c1cccs1	-35.7%	2.2%	-4.8	-0.4%
CC(NCCC(Cc1ccccc1)c1ccco1)c1ccccc1 (stereo not given)	20.7%	0.9%	-4.5	-0.1%
Cc1ccc(C)c(NC(=O)CN(C)C(=O)c2ccccc2OCc2ccc(Cl)cc2)c1	.	-6.6%	.	0.2%
COc1ccc(C(C(=O)NC2CCCC2)N(C(=O)c2ccco2)c2cccc(C(C)=O)c2)cc1OC (stereo not given)	0.4%	-3.6%	.	0.0%
Cc1ccc(CN2CC(=O)N3[C@H]4c5cc(C)ccc5OC[C@@H]4[C@H](c4ccccc4)[C@]3(C)C2=O)cc1	.	5.0%	.	-0.4%
O=C1CC(Nc2ccc(N3CCOCC3)cc2)C(=O)N1CCc1ccccc1 (stereo not given)	-5.0%	?	0.4	-3.0%
Cc1cc(C)n(CC(=O)N2c3ccccc3Sc3ccc(C(F)(F)F)cc32)n1	-16.1%	-18.2%	-24.2	?
O=S(=O)(c1ccccc1OC(F)(F)F)N1CCN(c2ccnc3cc(Cl)ccc23)CC1	5.3%	-7.9%	.	-1.5%
Cc1cccnc1CCNC(=O)CCc1nnc(-c2ccccc2)o1	-8.7%	12.1%	-1.3	-3.0%
O=C(Cn1c(=O)c(=O)n(Cc2ccccc2)c2ccc(Cl)cc21)Nc1ccc(F)cc1F	-1.7%	-3.9%	3.5	-3.7%

By substructure: those above with bromine
SMILES	miR-21 reporter	Rango release inh	GLA inh pH 4.5	Rango complex inh
O=C(NCC(=O)N1CCN(c2ccccc2)CC1)c1ccc(Br)o1	-3.7%	9.5%	.	0.0%
CCC(=O)N1CCc2cc(Br)cc(S(=O)(=O)N3CCN(C(=O)c4ccco4)CC3)c21	-2.3%	-2.9%	5.6	1.3%

(listing goes on)
SMILES	miR-21 reporter	Rango release inh	GLA inh pH 4.5	Rango complex inh
Cc1ccccc1OCC(=O)OCC(=O)NCC1CCCO1 (stereo not given)	6.3%	?	5.6	-3.5%
CC(/C=C1\SC(=S)N(NC(=O)c2ccccc2C)C1=O)=C\c1ccccc1	-11.4%	2.0%	-12.4	12.4%
Cc1ccc(Cl)c(NC(=O)CSc2n[nH]c(=O)n2C2CC2)c1Cl	.	-9.4%	.	-2.7%
Cc1ccc(C)c(OC(=O)c2cccnc2Cl)c1C	-17.9%	2.4%	.	-0.9%
O=C(COc1ccc2ccccc2c1)NCCc1ccc2c(c1)OCCO2	-4.1%	2.7%	-3.1	?
COc1cccc(CN2CCN(C3CCOCC3)CC2CCO)c1 (stereo not given)	2.6%	18.9%	1.1	-1.8%
CCNc1nc(NCC)nc(N2CC(=O)N(CC(=O)OCC)C2=N)n1	.	1.7%	.	-0.9%
CN1CCN(NC(=O)c2c(-c3ccccc3)sc3ccccc23)CC1	.	9.4%	.	0.8%
COc1cc(C(=O)ON=C2C(C)=CC(=O)C=C2C)cc(OC)c1OC	-5.6%	-6.6%	?	-2.3%
O=C(COC(=O)c1ccco1)Nc1ccccc1[N+](=O)[O-]	-1.2%	5.8%	-7.4	0.3%
COC(=O)c1c(SCc2cccc3ccccc23)nc(=O)[nH]c1C	4.0%	5.2%	4.5	3.1%
CCOc1cc(N2CCOCC2)c(OCC)cc1NC(=O)c1cc(S(=O)(=O)N2CCOCC2)ccc1Cl	.	7.1%	.	-0.9%
Nc1nc(N)nc(-c2ccc(Cl)cc2)n1	-33.5%	-9.4%	2.5	-2.9%
COCCn1cnc2c1c(=O)n(CC(=O)OCC(=O)NCC(F)(F)F)c(=O)n2Cc1ccccc1	-0.7%	-7.6%	-14.1	-3.2%
CC(=O)C1CCCN(C(=O)c2ccc3oc(CCc4ccccc4)nc3c2)C1 (stereo not given)	-43.7%	12.2%	.	3.0%
O=C(NCc1ccccc1Cl)C(=O)NCC1OCCN1S(=O)(=O)c1cccs1 (stereo not given)	-12.8%	1.7%	-11.8	0.3%
C=CCn1c(=NC(=O)C2CC2)sc2cc(NC(C)=O)ccc21	-24.4%	-17.0%	-3.8	?
NC(=O)c1ccccc1NC(=O)CCn1c(=S)oc2ccccc21	-2.2%	-4.8%	.	1.2%
CS(=O)(=O)c1nc(-c2ccc(F)cc2)cc(C(F)(F)F)n1	?	8.1%	5.8	2.2%
COc1ccc(/C=N/n2c(=O)[nH]c3c([nH]c4ccc(Br)cc43)c2=O)cc1CN1CCOCC1	-19.9%	-0.6%	-3.3	-0.8%
COc1ccc(C2C(C(=O)N3CCCC3)CC(=O)N2c2ccc(OC)cc2)cc1 (stereo not given)	-5.2%	-3.4%	-22.4	0.9%
O=C(OCC(=O)c1c[nH]c2ccccc12)C1=COCCO1	-55.4%	1.1%	4.4	6.9%
COc1ccc(Br)cc1CN(C)CC(=O)Nc1cc(Cl)ccc1Cl	0.4%	-5.3%	-12.9	1.4%
Cc1ccc(N2CC(C(=O)NCc3ccco3)CC2=O)cc1Cl (stereo not given)	-2.6%	-12.7%	.	2.0%
CC1CN(S(=O)(=O)c2cccc(C(=O)Nc3cc(Cl)ccc3N3CCOCC3)c2)CC(C)O1 (stereo not given)	.	-1.9%	.	0.3%
O=C(COC(=O)Cc1ccccc1F)NCc1ccc(Cl)cc1	.	3.8%	.	?
C[C@H](O)[C@@H]1C(=O)N2CCc3ccc(-c4ccccc4)cc3[C@@H]2C[C@@H]1N(C)C(=O)Nc1cc(Cl)cc(Cl)c1	.	3.4%	.	-0.9%
COc1ccc(CNC(=O)c2cccc(C)c2[N+](=O)[O-])cc1	-6.1%	-8.9%	5.6	-0.2%
O=S1(=O)N=C(N(CCO)/N=C/c2ccccc2)c2ccccc21	-0.2%	23.0%	8.5	6.8%
O=c1ccn(Cc2ccccc2)c(=O)n1Cc1ccccc1	-11.8%	-6.8%	-8.7	-1.2%
CC(C)CC(=O)O/N=C1\C(=O)N(c2ccccc2)c2ccccc21	-6.8%	-3.4%	3.4	0.0%
CC(=O)c1ccc(NC(=O)c2cn(-c3ccccc3)nc2-c2ccncc2)cc1	-8.5%	-1.9%	-4.2	4.5%
O=C(COC(=O)c1cc[n+]([O-])cc1)NCc1ccccc1Cl	-5.6%	-9.5%	2.1	-0.9%
COc1ccc(/C=N/NC(=O)c2[nH]c3ccc(Cl)cc3c2-c2ccccc2)c(C(=O)O)c1OC	29.0%	0.7%	.	0.4%
Cc1ccc(/C=N\NC(=O)c2ccc3c(c2)OCO3)o1	-29.6%	?	.	0.2%
COc1cccc(CNC(=O)CCCn2ccc3cc(S(=O)(=O)N4CCCC4)ccc32)c1	20.0%	9.0%	.	-2.4%
CCOC(=O)c1ccc(Cn2c(-c3ccccc3)nnc2-c2ccccc2)o1	-27.3%	-10.1%	-4.8	0.1%
COc1ccc(NC(C)=O)cc1NC(=O)CN1CCN(C(=O)c2ccco2)CC1	-4.0%	-2.1%	12.2	-0.2%
CCOC(=O)c1cc(C)[nH]c1C	-10.1%	1.3%	-9.0	7.2%
CC(Sc1nnc(COc2ccccc2)n1Cc1ccccc1)C(=O)O (stereo not given)	1.6%	-10.6%	7.7	-1.7%
O=C(Nc1nnc(-c2ccccc2Cl)o1)c1nc2ccccc2s1	-17.9%	3.8%	7.7	4.1%
CCOC(=O)c1cc(C#N)c(SC)nc1-c1ccccc1	-2.6%	6.9%	?	0.3%
COc1ccc(Br)cc1/C=N/NC(=O)CN1CCN(Cc2ccccc2)CC1	-3.9%	-6.1%	-6.1	1.1%
CC(C)CNC(=O)C1c2ccccc2Oc2ccccc21	0.5%	-0.4%	5.5	?
O=C(COC(=O)c1ccccc1SCC(=O)N1CCCC1)Nc1ccccc1C(F)(F)F	-2.2%	-9.7%	.	0.5%

3 compounds out of the list, sorted by SMILES length, low to high.
SMILES	miR-21 reporter	Rango release inh	GLA inh pH 4.5	Rango complex inh
CC(/C=C1\SC(=S)N(NC(=O)c2ccccc2C)C1=O)=C\c1ccccc1	-11.4%	2.0%	-12.4	12.4%
COc1cccc(CNC(=O)CCCn2ccc3cc(S(=O)(=O)N4CCCC4)ccc32)c1	20.0%	9.0%	.	-2.4%
COc1ccc(C(C(=O)NC2CCCC2)N(C(=O)c2ccco2)c2cccc(C(C)=O)c2)cc1OC (stereo not given)	0.4%	-3.6%	.	0.0%

The listing continues:
SMILES	miR-21 reporter	Rango release inh	GLA inh pH 4.5	Rango complex inh
CC(=O)Cc1cc(O)c2ccccc2c1OC(=O)c1ccccc1	-0.2%	-6.2%	-17.8	-3.9%
Cc1cc(C)c(NC(=O)C(C)N2CCCCCC2)c(C)c1 (stereo not given)	-0.6%	10.3%	.	3.4%
c1ccc(OCc2nnc3n2N=C(c2ccccc2)CS3)cc1	-26.9%	6.6%	-1.4	-2.3%
O=C(COC(=O)[C@H](Cc1ccccc1)NC(=O)c1cccs1)NC1CC1	-7.6%	-11.3%	2.9	-5.8%
Cc1ccc(Cn2nnc3c(=O)n(CC(=O)NCc4ccco4)cnc32)cc1	24.2%	2.1%	-6.7	3.5%
COc1ccc(/C=C2\Oc3cc(OCC(=O)N4CCC[C@H]4C(=O)O)ccc3C2=O)c(OC)c1	2.3%	?	.	?
CC(=O)NCc1nc2ccccc2n1Cc1ccccc1F	0.9%	-6.3%	-1.3	1.3%
COc1cccc(-c2nc(CS(=O)(=O)CC(=O)NCc3ccccc3OC)c(C)o2)c1	-2.2%	1.1%	-0.8	0.5%
O=C1c2oc3ccccc3c(=O)c2C(c2ccccn2)N1Cc1ccccc1 (stereo not given)	-2.6%	-11.9%	0.3	-1.2%
Cc1cc(NC(=O)c2ccc(F)cc2F)n(-c2nc3ccccc3[nH]2)n1	-7.9%	-10.6%	-17.1	-1.4%

3 entries out of the list above, sorted by their value in miR-21 reporter, rising:
SMILES	miR-21 reporter	Rango release inh	GLA inh pH 4.5	Rango complex inh
Cc1cc(NC(=O)c2ccc(F)cc2F)n(-c2nc3ccccc3[nH]2)n1	-7.9%	-10.6%	-17.1	-1.4%
CC(=O)Cc1cc(O)c2ccccc2c1OC(=O)c1ccccc1	-0.2%	-6.2%	-17.8	-3.9%
COc1ccc(/C=C2\Oc3cc(OCC(=O)N4CCC[C@H]4C(=O)O)ccc3C2=O)c(OC)c1	2.3%	?	.	?

Looked up by structure from above (3):
SMILES	miR-21 reporter	Rango release inh	GLA inh pH 4.5	Rango complex inh
Cc1cc(C)c(NC(=O)C(C)N2CCCCCC2)c(C)c1 (stereo not given)	-0.6%	10.3%	.	3.4%
O=C(Nc1nnc(-c2ccccc2Cl)o1)c1nc2ccccc2s1	-17.9%	3.8%	7.7	4.1%
COc1ccc(NC(C)=O)cc1NC(=O)CN1CCN(C(=O)c2ccco2)CC1	-4.0%	-2.1%	12.2	-0.2%
